Ecoli rRNA inh – reduced GFP signal of wild-type E. coli, primary screen, bacterial rRNA inhibitor project, GFP/RFP fluorescence, OD600, single point | E. coli WT GFP vs humanized-ribosome RFP mutants, 24 h; hits give low values; DMSO median 0, no signal -100 | GFP signal change (wild-type ribosome), % (concentration not given with the values) | 1.6% of 350,000 active | AID 720706, 2013;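 active = significant combined selectivity score with lowered wild-type GFP, culture density cut under 30%, mutant RFP and density less affected; inactive = any of these conditions unmet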; note: one replicate is shown; some compounds called inactive have numbers as strong as hits
FGF22 binding – binders of human FGF22 protein, primary screen, FGF22 synaptogenesis inhibitor project, biophysical, thermal shift, single point. calls only at 9.99 µM. 1.5% of 340,000 active. recombinant FGF22 thermal shift, SYPRO orange fluorescence; percent of sucrose octasulfate shift, DMSO zero. AID 651658, 2012;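 active = melting point raised past a set limit in the mean and every replicate; three in four hits are not shown here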
Target sequence (Q9HCT0 whole entry, looked up): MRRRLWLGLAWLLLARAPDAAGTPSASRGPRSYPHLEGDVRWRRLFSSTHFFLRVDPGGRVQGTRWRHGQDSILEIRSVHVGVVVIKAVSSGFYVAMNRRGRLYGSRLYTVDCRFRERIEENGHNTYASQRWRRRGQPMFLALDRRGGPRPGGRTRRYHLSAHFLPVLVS
Ecoli rRNA inh OD600 – also measured in Ecoli rRNA inh; calls as there; OD600 change, %; measured here: OD600 growth;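 optical density of the mix in the first replicate; 0 = DMSO median and -100 = no signal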
Ecoli rRNA inh RFP – also measured in Ecoli rRNA inh; calls as there; RFP signal change, %; measured here: RFP humanized mutant strains;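 first replicate; 0 = DMSO median and -100 = no signal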
* = called active by the depositor; i = inactive; + = active, no number; & = joins results of further samples. Only part of the results is shown, so the mix of outcomes need not match the whole.

SMILES	Ecoli rRNA inh	Ecoli rRNA inh OD600	Ecoli rRNA inh RFP	FGF22 binding
C[C@@H]1CN([C@H](C)CO)C(=O)c2cc(NC(=O)Nc3cccc4ccccc34)ccc2O[C@@H](C)CCCCO[C@H]1CN(C)Cc1ccncc1	-4	-3	4.8	i
CCS(=O)(=O)Nc1ccc2c(c1)C(=O)N(C)[C@H]1CC[C@H](CC(=O)N3CCCCC3)O[C@@H]1CO2	0	-1	0.2	i
CC(=O)N(C)C[C@@H]1Oc2ncc(C#Cc3ccncc3)cc2C(=O)N([C@H](C)CO)C[C@H]1C	5	16	-0.4	i
Cc1ccc(S(=O)(=O)N2CC[C@H]3[C@@H](CO)N(C)c4ccc(-c5ccc(C#N)cc5)cc4[C@H]32)cc1	0	-2	-0.6	i
COc1ccc(S(=O)(=O)N2C[C@@H](O)COC[C@@H]3O[C@@H](CC(=O)N[C@H]4CCN(Cc5ccccc5)C4)CC[C@H]32)cc1	-4	-6	-1.9	i
Cc1ccccc1S(=O)(=O)N1CC[C@@H]2[C@H](CO)Nc3ccc(-c4ccc(F)cc4)cc3[C@@H]21	-16	-29	-6.0	i
Cc1ccc(S(=O)(=O)N(C)C[C@H]2OCCCC[C@H](C)Oc3ccc(NC(=O)Nc4ccc(C(F)(F)F)cc4)cc3C(=O)N([C@H](C)CO)C[C@H]2C)cc1	6	18	0.1	i
Cc1[nH]c2ccccc2c1CC(=O)Nc1ccc(Nc2cccnc2)c(-c2cc(F)cc(F)c2)c1	0	3	5.1	i
CO[C@H]1CN(C)C(=O)c2cc(NC(=O)c3cccc(F)c3)ccc2OC[C@@H](C)N(CC2CC2)C[C@@H]1C	-2	-1	-0.9	i
Cc1noc(C)c1NC(=O)Nc1ccc2c(c1)C(=O)N([C@H](C)CO)C[C@H](C)[C@H](CN(C)Cc1ccc(Cl)c(Cl)c1)OCCCC[C@H](C)O2	-10	-45	9.2	i
COc1ccc(NC(=O)Nc2ccc3c(c2)CC(=O)N([C@@H](C)CO)C[C@H](C)[C@@H](CN(C)C(=O)Nc2ccc(C(F)(F)F)cc2)O3)cc1	1	-6	0.8	i
CNC(=O)C[C@H]1CC[C@H]2[C@@H](COC[C@H](O)CN2S(=O)(=O)c2cccc(Cl)c2)O1	3	9	-3.6	i
COC(=O)C[C@@H]1CC[C@@H]2[C@@H](COc3ccc(NC(=O)Nc4ccccc4C)cc3C(=O)N2C)O1	-1	-1	2.0	i
O=C(C[C@H]1CC[C@@H](NS(=O)(=O)c2ccccc2)[C@H](CO)O1)NCc1ccccc1F	0	3	0.1	i
COc1ccc(S(=O)(=O)N(C)C[C@H]2Oc3c(NC(=O)Nc4ccc(C(F)(F)F)cc4)cccc3C(=O)N([C@@H](C)CO)C[C@H]2C)cc1	2	4	-0.9	i
C[C@H]1CN([C@@H](C)CO)C(=O)CCCn2cc(nn2)CO[C@@H]1CN(C)S(=O)(=O)c1ccccc1F	19&-2	6&5	4.8&0.3	i
Cc1noc(C)c1NC(=O)Nc1ccc2c(c1)C(=O)N([C@@H](C)CO)C[C@H](C)[C@@H](CN(C)C(=O)Nc1ccc(F)cc1)O2	3	11	0.2	i
CNC[C@@H]1Oc2ccc(NC(=O)Nc3cccc4ccccc34)cc2C(=O)N([C@@H](C)CO)C[C@H]1C	0	6	-1.6	i
O=S(=O)(c1cccc(F)c1)N1CC[C@@H]2[C@@H](CO)Nc3ccc(C#Cc4cccc(F)c4)cc3[C@@H]21	-1	13	1.4	i
C[C@@H](O)C#Cc1ccc([C@@H]2[C@H]3CN(S(=O)(=O)Cc4ccccc4)CCCCN3[C@H]2CO)cc1	0	-8	1.1	i
C[C@@H]1CN([C@@H](C)CO)C(=O)c2cc(NC(=O)Cn3cnnn3)ccc2O[C@H]1CN(C)Cc1ccc(Cl)c(Cl)c1	-5	-6	-1.0	i
C[C@@H]1CN([C@@H](C)CO)C(=O)c2c(c3ccccc3n2C)-c2ccccc2CO[C@@H]1CN(C)Cc1cccc(O)c1	-39	-66	8.0	i
O=C(c1cnccn1)N1CC(=O)N2[C@H](C1)[C@@H](c1ccc(-c3cccc(F)c3)cc1)[C@@H]2CO	-1	-3	-0.8	i
C[C@H]1CN([C@@H](C)CO)C(=O)Cc2cc(NC(=O)Cc3ccccc3)ccc2O[C@@H]1CN(C)C(=O)NC1CCCCC1	0	8	0.0	i
O=C(C[C@H]1C=C[C@H](NC(=O)C2CCC2)[C@@H](CO)O1)NCc1ccncc1	0	1	-1.5	i
COc1ccc(CN(C)C[C@H]2Oc3ccc(NS(=O)(=O)c4ccc(C)cc4)cc3C(=O)N([C@@H](C)CO)C[C@@H]2C)cc1	-1	0	0.6	i
CCC(=O)N1[C@H](CO)[C@H]2c3ccccc3N(C(=O)Nc3cccc(Cl)c3)C[C@H]21	-54	-73	-11	i
CO[C@@H]1CN(C)C(=O)c2ccc(NS(C)(=O)=O)cc2OC[C@@H](C)N(Cc2nccs2)C[C@@H]1C	0	1	-0.1	i
O=C(C[C@@H]1C[C@H]2c3cc(NC(=O)C4CCC4)ccc3O[C@H]2[C@H](CO)O1)NCc1ccncc1	3	3	-3.4	i
COCC(=O)Nc1ccc2c(c1)OC[C@@H](C)N(Cc1ccncc1)C[C@H](C)[C@H](OC)CN(C)C2=O	-1	2	-1.3	i
CCCN(C[C@@H]1N[C@@H](CO)[C@H]1c1ccc(-c2cccnc2)cc1)C(C)=O	1	12	-4.0	i
CC(=O)N(C)C[C@H]1Oc2cc(C#Cc3ccccc3)ccc2S(=O)(=O)N([C@@H](C)CO)C[C@@H]1C	-4	-19	4.8	i
C[C@@H]1CCCCO[C@H](CN(C)C(=O)Nc2ccc(F)cc2)[C@H](C)CN([C@H](C)CO)C(=O)c2cc(NS(C)(=O)=O)ccc2O1	-6	-12	-2.7	i
COCC(=O)N(C)C[C@@H]1Oc2cc(-c3ccc(C)cc3)ccc2S(=O)(=O)N([C@@H](C)CO)C[C@@H]1C	-5	-14	0.1	i
C[C@H]1CN([C@@H](C)CO)C(=O)CCCn2cc(nn2)CO[C@H]1CN(C)Cc1ccc2c(c1)OCCN2C	0	2	-1.3	i
CO[C@H]1CN(C)C(=O)c2ccc(NC(C)=O)cc2OC[C@H](C)N(C(=O)c2ccccc2)C[C@@H]1C	2	3	-2.6	i
CCCC#Cc1ccc2c(c1)O[C@@H](CN(C)C(=O)NC(C)C)[C@@H](C)CN([C@H](C)CO)S2(=O)=O	-5	-6	1.9	i
C[C@H](CO)N1C[C@H](C)[C@H](CN(C)CC2CC2)OCCCC[C@H](C)Oc2ccc(NS(=O)(=O)c3cccs3)cc2C1=O	-1	-3	-0.8	i
Cc1ccc(S(=O)(=O)Nc2ccc3c(c2)C(=O)N([C@@H](C)CO)C[C@H](C)[C@H](CN(C)C(=O)Nc2ccc(C(F)(F)F)cc2)O3)cc1	0	-3	2.3	i
C[C@@H]1CN([C@H](C)CO)C(=O)Cc2cc(NS(=O)(=O)c3ccc(Cl)cc3)ccc2O[C@H]1CN(C)CC1CCCCC1	-21	-51	9.7	i
O=C(Nc1cccc(F)c1)N1C[C@@H]2[C@H](c3ccccc31)[C@@H](CO)N2C(=O)c1ccccn1	-2	2	2.1	i
COc1ccccc1S(=O)(=O)N[C@H]1C=C[C@H](CC(=O)NCc2cc(F)cc(F)c2)O[C@H]1CO	0	-2	8.6	i
C[C@H](CO)N1C[C@H](C)[C@@H](CN(C)C(=O)CCCN(C)C)OCCCC[C@H](C)Oc2ccc(NS(=O)(=O)c3ccc(F)cc3)cc2C1=O	2	7	-0.7	i
Cc1cc(Oc2cccnc2)ccc1NC(=O)Cc1cn(C)c2ccccc12	-5	-6	2.8	i
CC1CN(C(=O)/C(C#N)=C2\N=C(NC(=O)c3ccccc3Cl)c3ccccc32)CC(C)O1 (stereo not drawn)	14	12	-8.6	i
COc1ccc(S(=O)(=O)Nc2ccc3c(c2)CC(=O)N([C@@H](C)CO)C[C@@H](C)[C@@H](CN(C)Cc2ccncc2)O3)cc1	-3	2	0.6	i
C/C=C/c1ccc([C@H]2[C@@H](CO)N(C(C)=O)C23CN(C(=O)c2ccc(F)cc2)C3)cc1	-3	-7	3.7	+
Cc1ccc(S(=O)(=O)Nc2ccc3c(c2)C(=O)N([C@H](C)CO)C[C@@H](C)[C@H](CN(C)S(=O)(=O)c2cccs2)OCCCC[C@H](C)O3)cc1	-3	0	0.4	i
O=C(C[C@H]1C[C@@H]2c3cc(NC(=O)Nc4ccccc4F)ccc3O[C@@H]2[C@@H](CO)O1)NCc1ccc2c(c1)OCO2	-7	-20	2.2	i
C[C@@H]1CCCCO[C@@H](CN(C)Cc2ccc(C(F)(F)F)cc2)[C@@H](C)CN([C@H](C)CO)C(=O)c2cc(NC(=O)Nc3ccccc3)ccc2O1	3	10	1.6	i
C[C@@H]1CCCCO[C@H](CN(C)Cc2ccncc2)[C@@H](C)CN([C@H](C)CO)C(=O)c2cc(NC(=O)Cc3ccccc3)ccc2O1	0	4	-1.4	i
N#C[C@H]1[C@@H](c2ccccc2C2=CCCCC2)[C@@H](CO)N1C(=O)Nc1ccccc1F	-3	-5	-2.4	i
C[C@@H]1CN([C@@H](C)CO)C(=O)c2cc(NS(=O)(=O)c3cn(C)cn3)ccc2O[C@H]1CN(C)Cc1ccc(Oc2ccccc2)cc1	-3	-6	-2.5	i
COc1ccc(OCC2CN(C3CCCC3)S(=O)(=O)CCO2)cc1 (stereo not drawn)	-6	-1	3.0	i
Cc1ccc(-c2ccc([C@H]3[C@@H](CO)N4CCCCN(S(=O)(=O)c5ccccc5C)C[C@@H]34)cc2)cc1	6	12	0.8	i
COCCNC(=O)C[C@H]1C[C@@H]2c3cc(NC(=O)CC4CC4)ccc3O[C@@H]2[C@H](CO)O1	4	13	0.5	i
COc1ccc(NC(=O)N(C)C[C@@H]2OCCCC[C@@H](C)Oc3ccc(NS(=O)(=O)c4cn(C)cn4)cc3C(=O)N([C@H](C)CO)C[C@H]2C)cc1	-2	-3	1.3	i
C[C@@H]1CN([C@H](C)CO)C(=O)c2c(c3ccccc3n2C)-c2ccccc2CO[C@H]1CN(C)C(=O)Nc1ccc(-c2ccccc2)cc1	5	11	-0.8	i
C[C@H]1CCCCO[C@H](CN(C)CC2CC2)[C@@H](C)CN([C@@H](C)CO)C(=O)c2cc(NC(=O)c3ccncc3)ccc2O1	3	14	0.1	i
C[C@H](CO)N1C[C@H](C)[C@@H](CN(C)S(=O)(=O)c2cn(C)cn2)Oc2c(NC(=O)C3CC3)cccc2C1=O	1	7	-1.0	i
Following part:
SMILES	Ecoli rRNA inh	Ecoli rRNA inh OD600	Ecoli rRNA inh RFP	FGF22 binding
COc1cccc(S(=O)(=O)Nc2ccc3c(c2)OC[C@H](C)N(C(=O)Cc2cccnc2)C[C@H](C)[C@@H](OC)CN(C)C3=O)c1	3	4	0.0	i
COc1ccc(CNC(=O)N(C)C[C@@H]2OCc3ccccc3-c3c(n(C)c4ccccc34)C(=O)N([C@@H](C)CO)C[C@H]2C)cc1	0	5	0.1	i
O=C(C[C@H]1CC[C@H]2[C@@H](COC[C@@H](O)CN2S(=O)(=O)c2cccc(F)c2)O1)NCc1ccncn1	3	2	-2.8	i
CO[C@H]1CN(C)C(=O)c2cc(NC(=O)Cc3ccccc3)ccc2OC[C@H](C)NC[C@H]1C	2	2	0.6	i
CCCN1C[C@H](C)[C@H](OC)CN(C)C(=O)c2ccc(NC(=O)c3ccccc3)cc2OC[C@H]1C	2	1	-1.7	i
C[C@H]1CN([C@@H](C)CO)C(=O)c2cccc(NS(=O)(=O)c3cccs3)c2O[C@@H]1CN(C)S(=O)(=O)c1ccc(F)cc1	0	7	1.9	i
C[C@H]1CN([C@@H](C)CO)C(=O)c2cccc(NC(=O)Nc3ccc(C(F)(F)F)cc3)c2O[C@@H]1CN(C)S(=O)(=O)c1cccs1	-2	-4	-0.7	i

A stretch from further up, for reference:
SMILES	Ecoli rRNA inh	Ecoli rRNA inh OD600	Ecoli rRNA inh RFP	FGF22 binding
C[C@@H]1CN([C@H](C)CO)C(=O)c2cc(NC(=O)Nc3cccc4ccccc34)ccc2O[C@@H](C)CCCCO[C@H]1CN(C)Cc1ccncc1	-4	-3	4.8	i
CCS(=O)(=O)Nc1ccc2c(c1)C(=O)N(C)[C@H]1CC[C@H](CC(=O)N3CCCCC3)O[C@@H]1CO2	0	-1	0.2	i
CC(=O)N(C)C[C@@H]1Oc2ncc(C#Cc3ccncc3)cc2C(=O)N([C@H](C)CO)C[C@H]1C	5	16	-0.4	i
Cc1ccc(S(=O)(=O)N2CC[C@H]3[C@@H](CO)N(C)c4ccc(-c5ccc(C#N)cc5)cc4[C@H]32)cc1	0	-2	-0.6	i
COc1ccc(S(=O)(=O)N2C[C@@H](O)COC[C@@H]3O[C@@H](CC(=O)N[C@H]4CCN(Cc5ccccc5)C4)CC[C@H]32)cc1	-4	-6	-1.9	i
Cc1ccccc1S(=O)(=O)N1CC[C@@H]2[C@H](CO)Nc3ccc(-c4ccc(F)cc4)cc3[C@@H]21	-16	-29	-6.0	i
Cc1ccc(S(=O)(=O)N(C)C[C@H]2OCCCC[C@H](C)Oc3ccc(NC(=O)Nc4ccc(C(F)(F)F)cc4)cc3C(=O)N([C@H](C)CO)C[C@H]2C)cc1	6	18	0.1	i
Cc1[nH]c2ccccc2c1CC(=O)Nc1ccc(Nc2cccnc2)c(-c2cc(F)cc(F)c2)c1	0	3	5.1	i
CO[C@H]1CN(C)C(=O)c2cc(NC(=O)c3cccc(F)c3)ccc2OC[C@@H](C)N(CC2CC2)C[C@@H]1C	-2	-1	-0.9	i

Screening data from PubChem BioAssay.
